NPYLR7 agonist = activates Aedes aegypti NPYLR7 receptor; HEK293T NPYLR7/Galpha15, GCaMP6s calcium fluorescence; activation, % at 10 µM; 270,000 compounds, 0.15% hits; AID 1259423; in the data active means activation above about 40%;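 further: 0% = vehicle and 100% = reference agonist at the receptor; some compounds past the cut are filed as inactive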
NPYLR7 agonist max-min = also measured in NPYLR7 agonist; calls as there; activation, %; measured here: Max-Min RFU normalised activation; some inactives read as strong as hits;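 span of the calcium signal over five minutes; 0% = vehicle and 100% = native peptide agonist; compound fluorescence can raise it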
Starred values were filed as active, the others as inactive.

SMILES | NPYLR7 agonist | NPYLR7 agonist max-min
Cc1ccsc1CN(C(=O)c1ccccc1-c1nn[nH]n1)C1CC1 | 3 | 3
CCN1CC(C(=O)NC(c2ccc(Cl)cc2)C(C)C)CC1=O (configuration not stated) | 9 | 6
O=C(c1cccc(C(F)(F)F)c1)N1CCC2(CC1)SCCN2C(=O)C1CCCC1 | 4 | 5
Cn1c(=O)c2c(nc(CN3CCc4ccccc4C3)n2Cc2cccc(Cl)c2)n(C)c1=O | 6 | 3
O=C1c2ccc(Br)cc2C(=O)N1CN1CCOCC1 | -3 | -8
Cc1ccc2c(c1)N(Cc1ccc(F)cc1)C(=O)C(C)O2 (configuration not stated) | 4 | 11
COC(=O)c1cc(CN2CCCN(c3ccnc(C)c3)CC2)cs1 | 4 | 1
O=C(Nc1ccnn1C1CCN(C(=O)CCCc2ccccc2)CC1)c1cccc(F)c1 | 15 | 6
C=C(C)CN(C)C(=O)Cc1c2c(n(Cc3ccccc3F)c1C)CCCC2=O | 2 | -1
CCOC(=O)c1c(C)n(-c2ccccc2)c2ccc(OC(=O)c3ccc(C(=O)c4ccccc4)cc3)cc12 | 3 | 1
CCc1[nH]nc(C(=O)N/N=C\c2ccncc2)c1C | 1 | 1
CN1C(=O)c2cccc(NC(=O)CCc3ccccc3)c2C1=O | -2 | -5
COc1ccc2nc(-n3nc(C)cc3NC(=O)Cc3ccc4c(c3)OCO4)sc2c1 | -6 | -11
CCN(CC)C(=O)Cn1cc(C(=O)N(CC)CCn2cccn2)nn1 | 3 | -1
FC(F)(F)c1ccc(-c2nc(CSc3nccc(C(F)(F)F)n3)cs2)cc1 | 2 | -2
Cc1ccc(-n2c(SC(C)C(=O)NC(N)=O)nc3cc(Cl)ccc3c2=O)cc1 (configuration not stated) | 3 | 4
O=c1[nH]c(O)c(C=NCCSCc2cccs2)c(=O)[nH]1 | -5 | -8
O=C(NCCOc1ccccc1)C1CCC(=O)N(CCc2ccccn2)C1 (configuration not stated) | 13 | 13
O=C(Cc1n[nH]c(=O)c2ccccc12)NCCO | -5 | -10
COCCOCC(=O)N1CCN(Cc2cc(=O)c(OCc3cccc(F)c3)co2)CC1 | -14 | -2
C#CCNC(=O)c1cnc2c(-c3ccc(C(C)C)cc3)cnn2c1C | 12 | 22
COc1cccc(C(=O)N2CCN(c3nc(C)nc(C)c3Cc3cc(C)ccc3C)CC2)c1 | 0 | 8
Cc1ccc(N2CCC(N3CCOC(c4n[nH]c(C)n4)C3)C2=O)cc1 (configuration not stated) | 7 | 2
NC(=O)C1(CNC(=O)CC(c2ccccc2)C(F)(F)F)CCCC1 (configuration not stated) | 2 | -3
CCCCCCC1(C)SC(NC(C)=O)=NN1C(C)=O (configuration not stated) | -4 | -4
Other records.
SMILES | NPYLR7 agonist | NPYLR7 agonist max-min
CCn1cc(C(=O)N2CCc3c([nH]c4ccccc34)C2c2cccc(C(F)(F)F)c2)cn1 (configuration not stated) | 18 | 14
O=C(c1cc2ccccc2s1)N1CCN(c2nc3nccc(-c4cc(Cl)ccc4Cl)n3n2)CC1 | 5 | 2
O=C(Nc1cccc(C2SCCCS2)c1)c1ccc(N2CCCCC2=O)cc1 | 5 | 4
CCOC(=O)Cn1nc(C(F)(F)F)c(Cl)c1C | 1 | -1
CCCCN(CC)C(=O)c1cc2c(=O)n3cccc(C)c3nc2s1 | 4 | -1
Cc1ccc(-n2ccc3nc(N4CCOCC4)ncc3c2=O)cc1C | 8 | 6
COc1cc(C)ccc1-n1c(CCC(=O)NCCC#N)cc2c1-c1ccccc1OC2 | 3 | -2
CCCCN(C(=O)c1c(C)noc1C)c1c(N)n(CCC)c(=O)[nH]c1=O | 13 | 16
CCCc1nc(N2CCN(C(=O)N(C)C)CC2)c2c(C)nn(-c3ccc(F)cc3)c2n1 | 4 | 4
COc1ccccc1CN1CCC(O)(c2cccc(C(F)(F)F)c2)CC1 | 15 | 12
c1ccc2c(c1)OCC(c1nn3c(CN4CCCCCC4)nnc3s1)O2 (configuration not stated) | -7 | -14
O=C(C(c1ccccc1)N1CCCC1c1cccs1)N1CCCCC1 (configuration not stated) | 6 | 4
CCCCS(=O)CC(COC)OC(=O)c1ccccc1 (configuration not stated) | -2 | 26
Cc1cc(OCC2CN(C(=O)Cc3ccsc3)CCO2)ccc1Cl (configuration not stated) | 28 | 35
COc1ccc(Cn2c(-c3ccccc3C)nc3oc4ccccc4c(=O)c3c2=O)cc1 | 2 | -1
CC/C=N\OC(=O)c1c(F)c(F)c(F)c(F)c1F | -10 | -17
O=C(NCC1CCN(c2nc(Cc3ccc(Cl)cc3)ns2)CC1)c1ccc([N+](=O)[O-])cc1Cl | 7 | 9
CC(C)c1nc2sc3c(NCCO)ncnc3c2c2c1COC(C)(C)C2 | 9 | 2
CC(c1nc2ccccc2c(=O)n1-c1ccc(Cl)cc1)N(C)S(=O)(=O)c1ccc(C(C)(C)C)cc1 (configuration not stated) | 3 | 12
O=C(CSc1ncnc2sc3c(c12)CCCC3)N1CCOCC1 | 0 | 25
CC1(C)Cc2cc(CNC(=O)c3cccc(C4CCNC4)c3)ccc2O1 (configuration not stated) | 18 | 5
Cc1cccc(C(=O)N2CCCC(OCc3cccc(F)c3F)C2)c1 (configuration not stated) | -6 | -2
COc1ccc(-c2cn3c(CCC(=O)N4CCCC4)csc3n2)cc1 | 0 | -2
NC(=O)c1ccsc1NC(=O)CCC(=O)O | 10 | 14
NC(=O)c1nn2c(c1Br)NC(c1ccc(Br)o1)CC2C(F)(F)F (configuration not stated) | -6 | -7

Rewritten as tab-separated lines: entries from further up
SMILES	NPYLR7 agonist	NPYLR7 agonist max-min
O=C(C(c1ccccc1)N1CCCC1c1cccs1)N1CCCCC1 (configuration not stated)	6	4
CCCCS(=O)CC(COC)OC(=O)c1ccccc1 (configuration not stated)	-2	26
Cc1cc(OCC2CN(C(=O)Cc3ccsc3)CCO2)ccc1Cl (configuration not stated)	28	35
COc1ccc(Cn2c(-c3ccccc3C)nc3oc4ccccc4c(=O)c3c2=O)cc1	2	-1
CC/C=N\OC(=O)c1c(F)c(F)c(F)c(F)c1F	-10	-17
O=C(NCC1CCN(c2nc(Cc3ccc(Cl)cc3)ns2)CC1)c1ccc([N+](=O)[O-])cc1Cl	7	9
CC(C)c1nc2sc3c(NCCO)ncnc3c2c2c1COC(C)(C)C2	9	2
CC(c1nc2ccccc2c(=O)n1-c1ccc(Cl)cc1)N(C)S(=O)(=O)c1ccc(C(C)(C)C)cc1 (configuration not stated)	3	12
O=C(CSc1ncnc2sc3c(c12)CCCC3)N1CCOCC1	0	25
CC1(C)Cc2cc(CNC(=O)c3cccc(C4CCNC4)c3)ccc2O1 (configuration not stated)	18	5
Cc1cccc(C(=O)N2CCCC(OCc3cccc(F)c3F)C2)c1 (configuration not stated)	-6	-2
COc1ccc(-c2cn3c(CCC(=O)N4CCCC4)csc3n2)cc1	0	-2
NC(=O)c1ccsc1NC(=O)CCC(=O)O	10	14
NC(=O)c1nn2c(c1Br)NC(c1ccc(Br)o1)CC2C(F)(F)F (configuration not stated)	-6	-7

More compounds:
SMILES | NPYLR7 agonist | NPYLR7 agonist max-min
CC1CC2(C)Oc3ccccc3C3OCC1(CO)C(C)C32 (configuration not stated) | 43* | 105*
COCCN1CC(C(=O)NCc2cnn(Cc3ccccc3)c2)CCC1=O (configuration not stated) | 13 | 3
COCCc1ncc(CN2CCN(Cc3cccc(Cl)c3)CC2)cn1 | 21 | 13
Cc1c(C(=O)O)oc2c1C(=O)/C(=C\c1csc(-c3ccccn3)n1)CC2 | 6 | 3
CCNC(=O)C1CCN(c2ccccc2Oc2ccccc2)C1=O (configuration not stated) | -3 | -6
C=C(C)COc1ccc(-c2[nH]ncc2-c2ccccc2)c(O)c1 | 2 | -1
CCOc1ccc(-n2ccnc(SCC(=O)c3ccc(OC)cc3)c2=O)cc1 | -22 | -28
COCCC(=O)N1CCC2(CC1)CN(Cc1ccc(Cl)cc1)CCN2C | 4 | 1
CC(C)CNC(=O)C(F)(F)c1ccccn1 | 5 | 2
CCC1CN(C(=O)c2ccc(N3CCOCC3)nc2)CCN1C(C)C (configuration not stated) | 8 | 5
O=C(N=C1N=C2C=CC(Cl)=CN2Cc2ccccc21)C1CC1 | -7 | -13
COc1ccc(CCN2CCCn3c2nc2c3c(=O)n(CCC(C)C)c(=O)n2C)cc1OC | 3 | 1
CC1CCN(c2ccc(NC(=O)c3ccccc3Cl)cc2C(=O)NCc2ccccc2)CC1 | -5 | -5
CSc1ccc(NC(=O)N(C)C(C)c2nc(C)sc2C)cc1 (configuration not stated) | -5 | -5
CC(C)c1cc(Cl)n2c(nc3ccccc32)c1C#N | 3 | 3
NC1CCC(CN2CCOC3(CNCCOC3)C2)CC1 (configuration not stated) | 0 | -3
Cc1ccc2c(c1)C(=O)C(=O)N2CN(C)Cc1ccc(Cl)c(Cl)c1 | 0 | 0
Cc1cc(=O)[nH]c(N/N=C2\CCCOc3c2ccc(Cl)c3Cl)n1 | 3 | 2
CCCCc1ccc(S(=O)(=O)Nc2ccccc2C(=O)NC2CCCCC2)cc1 | -3 | -7
C=CCN=C1NN=C(c2ccc(OC)cc2)C(c2ccc(OC)cc2)S1 (configuration not stated) | 2 | 0
Cc1cnc(C(=O)N2CCn3nc(C(=O)NC4CC4)cc3C2)[nH]1 | -8 | -13
CSC1=NC(C)=C(C(=O)Nc2ccccc2C)C(c2ccccc2Cl)C1C#N (configuration not stated) | -7 | -10
CCCCOc1ccc(C(=O)O/N=C2\C(=O)N(C)c3ccccc32)cc1 | 4 | 4
Cc1ccc(N2CCN(c3cc(Oc4ccc(F)cc4Cl)ncn3)CC2)cc1 | 5 | 9
Cc1cccc(Cn2cnc3c(cnn3CCNC(=O)c3ccc4c(c3)OCO4)c2=O)c1 | -3 | -7
Following part:
SMILES | NPYLR7 agonist | NPYLR7 agonist max-min
O=C(Cn1nc2c(c1NC(=O)c1c[nH]c3ccccc13)CSC2)NCCc1ccccc1 | 4 | 15
CC(NC(=O)c1cncn1-c1cccc(-c2cccc3c2sc2ccccc23)c1)c1ccc(Br)cc1 (configuration not stated) | 20 | 8
Nc1cc(-c2cccc(Cl)c2)nn1-c1ccc(C(=O)N2CCC(O)(c3ccc(Cl)cc3)CC2)cc1 | -1 | -5
Cc1ccc(-c2ccnc(NCCSc3cn[nH]n3)n2)c(C)n1 | -1 | 13
Cc1cc(N(CC(=O)NC(C)(C#N)C(C)C)C(C)C)ccc1C(N)=O (configuration not stated) | 4 | 0
Cn1nnnc1SCCNC(=O)c1ccccc1N1CCOCC1 | 1 | -1
CCOC(=O)C1=C(C)NC2=C(C(=O)CC(C)(C)C2)C1c1cccc(Br)c1 (configuration not stated) | -2 | -6
N#C/C(=N\Nc1ccc([N+](=O)[O-])c(C(F)(F)F)c1)c1nc2ccccc2s1 | -4 | -7
COc1ccc(NC(=O)C(NC(=O)OCc2ccccc2)SC(C)C)cc1Cl (configuration not stated) | -2 | -5
CCOC(=O)C1=C(C)N(C2CC2)C(=O)NC1c1cc(Br)ccc1OC (configuration not stated) | -2 | -6
Cc1ccc(S(=O)(=O)c2c(C)nn(C(C)(C)C)c2OC(=O)c2ccc3c(c2)OCO3)cc1 | 0 | 24
Cc1ccc(-c2nc(CNC(=O)c3cnccn3)[nH]c2-c2ccccn2)cc1 | 3 | -2
O=C(c1cn(-c2cc(N3CCCCC3)ncn2)cn1)N1CCC2(CC1)OCCO2 | -7 | -10
Cc1ccccc1C(=O)N(Cc1cccnc1)c1nc2c(F)cc(F)cc2s1 | -17 | -10
COc1cc(C(=O)NCc2cc(F)cc3c(C)c(C)[nH]c23)ccn1 | 10 | 4
COc1ccc(NC2CC(O)C(CO)O2)cc1 (configuration not stated) | -3 | -6
Clc1ccccc1Cc1noc(CN2CCSCC2)n1 | -7 | -6
O=[N+]([O-])c1ccc(Cl)c(S(=O)(=O)Nc2nc3ccc(Cl)cc3s2)c1 | 1 | -5
Cc1ccccc1-n1c(SCc2ccc(C(=O)NCc3ccco3)cc2)nnc1-c1ccco1 | -12 | -1
COc1ccccc1-c1cccc(C(=O)N2CC[C@H]3CC[C@@H](C2)N3)c1 | -6 | -6
O=C(NCc1nnnn1-c1ccc(F)c(F)c1)c1ccco1 | -2 | -2
O=C1NC(CC(=O)N2CCCN(c3ccncc3)CC2)c2ccccc21 (configuration not stated) | 7 | 4
CCC(C)N(Cc1cccn1Cc1cccc(OC)c1)C(=O)CN(CCCOC)C(=O)N(C)C (configuration not stated) | -14 | -1
COc1ccc(S(=O)(=O)NCCCN2CCOCC2)cc1N1CCN(S(=O)(=O)c2c(C)c(C)c(C)c(C)c2C)CC1 | 22 | 11
Cc1cccc(C(=O)NCC(c2ccc(N(C)C)cc2)N(C)C)c1 (configuration not stated) | 2 | 0
Other results follow.
SMILES | NPYLR7 agonist | NPYLR7 agonist max-min
Cc1cccc(C(=O)N2C(C(=O)O)COC23CCN(C(=O)Cc2ccccc2)CC3)c1 (configuration not stated) | 10 | 11
O=C1Nc2ccc(S(=O)(=O)O)c3cccc1c23 | 10 | 3
CCOC(=O)[C@@H]1C[C@H]2CN(CCOC)C(=O)c3cccc(c32)N1C(=O)c1ccccc1OC(F)(F)F | -1 | 6
CCOc1ccc(C2CC(=O)Nc3c2c(C)nn3-c2ccc(Cl)nn2)cc1OC (configuration not stated) | -6 | -9
COc1cn(CC(=O)N2CCc3ccccc32)c(CSc2ccc(F)cc2)cc1=O | -3 | -9
Cc1ccc(OCc2cc(C(=O)N3CCc4[nH]c5ccccc5c4C3)no2)cc1C | 8 | 1
CN(Cc1ccc(F)cc1F)C(=O)c1cc(Br)ccc1O | 2 | 1
COCCn1c(C)c(C)n2c3c(=O)n(Cc4ccc(C)cc4)c(=O)n(C)c3nc12 | -1 | 3
COc1cccc(N2C(=O)CSC2c2ccc(NC(=O)C(C)(C)CCl)cc2)c1 (configuration not stated) | 18 | 23
CCCCCCc1ccc(C(=O)N(CC(=O)N2c3ccccc3-n3cccc3C2c2ccc(F)cc2)C(C)C)cc1 (configuration not stated) | 14 | 20
CCSc1nnc(C)c(=O)n1COC(=O)c1ccc(S(=O)(=O)N2CCCC2)cc1 | 0 | -1

High-throughput results deposited in PubChem BioAssay by Fisher Drug Discovery Resource Center.

The list is partial (hit frequency here may not be typical).
